High-throughput results from PubChem BioAssay.
D2 potentiator: positive allosteric modulators of human D2 dopamine receptor; DiscoveRx D2 beta-arrestin cells, luminescence, 90 min; 100% = 57 uM dopamine signal; potentiation, % (no concentration beside the values); 360,000 tested, 0.23% active; active = potentiation of 50% or more; inconclusive = 30% to 50%; inactive = 30% or less;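 note: compound concentration not given in the record; tested on top of an EC20 dose of dopamine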
Target sequence (P14416 whole entry, looked up): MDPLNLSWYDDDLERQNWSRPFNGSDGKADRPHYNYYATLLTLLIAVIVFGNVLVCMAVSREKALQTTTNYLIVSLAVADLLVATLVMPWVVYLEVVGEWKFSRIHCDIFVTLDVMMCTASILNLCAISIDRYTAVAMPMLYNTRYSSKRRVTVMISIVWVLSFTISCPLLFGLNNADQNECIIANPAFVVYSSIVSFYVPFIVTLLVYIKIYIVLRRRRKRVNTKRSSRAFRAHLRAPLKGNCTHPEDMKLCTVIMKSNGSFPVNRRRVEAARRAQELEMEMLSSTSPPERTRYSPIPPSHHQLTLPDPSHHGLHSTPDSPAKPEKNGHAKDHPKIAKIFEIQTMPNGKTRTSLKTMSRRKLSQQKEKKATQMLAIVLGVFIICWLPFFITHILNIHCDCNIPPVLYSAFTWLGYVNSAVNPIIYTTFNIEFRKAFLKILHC
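PathHunter beta-arrestin assay in DiscoveRx D2 cells. Compounds were added with an EC20 of dopamine (50 nM final) for 90 min at 37 deg C. Luminescence was read 1 h after detection reagent, with 57 uM dopamine as the EC100 control.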
gsp antagonist: antagonizes gsp, the McCune-Albright syndrome mutation; gsp-mutant cells, cAMP HTRF, 30 min; control for the full effect not named in the record; Potency, µM (series often up to 76.9 µM), for inactives: at the top dose activity change, negative = inhibition, usual class: inhibitors; 340,000 tested, 0.4% active; AID 624288; active = falling curve of any shape with a large fitted effect; inconclusive = falling curve, mostly with a smaller effect; inactive = flat or rising curve; cell line not stated here;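 note: intracellular cAMP measured with PDE inhibitor Ro 20-1724 present during compound exposure; potency is the fitted concentration of half-maximal effect; % is set by controls: 0 for no effect and ±100 for the full control effect; nearly all actives have a fitted effect of over 65% in size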
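G418-selected cells were plated in DMEM/10% FBS for 16-24 h at 37C, then treated with compounds plus the PDE inhibitor […] (300 uM solution added) for 30 min at 37C. Intracellular cAMP was measured by HTRF after 30 min lysis at room temperature.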
ClpP mod: qHTS Assay for Activators of ClpP; purified B. subtilis ClpP, FRET peptide cleavage, 20 min; Potency, µM (series often up to 57.5 µM), without a hit: top-dose activity change, negative = active; 340,000 tested, 1.9% active; AID 651965, 2013; active = well fitted falling curve with a large enough effect; inconclusive = small, poorly fitted or top-dose-only effect; inactive = no such curve, though single readings can be large or run the other way; note: potency is the fitted concentration of half-maximal effect; the source files actives as falling curves though it sought activators and does not explain the sign; nearly all actives have a fitted effect of over 65% in size; many hits overshoot -100%
Target sequence (P80244 whole entry, looked up): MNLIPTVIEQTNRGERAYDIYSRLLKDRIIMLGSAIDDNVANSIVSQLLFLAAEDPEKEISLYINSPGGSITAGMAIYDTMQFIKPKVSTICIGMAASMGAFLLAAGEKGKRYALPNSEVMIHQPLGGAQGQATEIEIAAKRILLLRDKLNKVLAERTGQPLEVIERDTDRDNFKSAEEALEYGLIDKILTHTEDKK
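FRET quenching reversal measured ClpP activation: 10 microg/mL B. subtilis ClpP at pH 8 with the FRET-FV decapeptide, read at 430 nm after 320 nm excitation. The 20-min minus 0-min signal was scaled between DMSO/no-enzyme wells and ADEP (5.8 microM final).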
gsp agonist: activates gsp, the McCune-Albright syndrome mutation | Potency, µM (series often up to 76.9 µM), for the others: at the top dose activation (cAMP increase), actives largely listed as activators | gsp mutant cells, cAMP HTRF, 30 min; control for the full effect not named in the record | 340,000 tested, 0.13% active | AID 624287; active = well fitted activation curve with a large enough effect; inconclusive = small, poorly fitted or top-dose-only effect, or another doubt; inactive = no such curve, though single readings can be large or run the other way; cell line not stated here;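 note: phosphodiesterase inhibitor Ro 20-1724 added with compounds to block cAMP breakdown; potency is the fitted concentration of half-maximal effect; nearly all actives have a fitted effect of over 60% in size; about a fifth of the inactives were tested at one dose only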
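Cells stably selected in G418 were plated at 2000/well, grown 16-24 hr, then given compounds in DMSO with the PDE inhibitor […] (300 uM solution added) for 30 min at 37C; cAMP was read by HTRF.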
Menin-MLL FL inh: displaces fluorescein MLL peptide from human menin; Fluorescence polarization, fluorescein-MLL peptide displacement from menin; FP activity change, % at 61.4 µM; 290,000 tested, under 10 active; inconclusive = falling polarisation curve, or a change in total fluorescence; inactive = total fluorescence flat and polarisation flat or rising; no compound was filed as active; the % refers to the polarisation; negative = inhibition;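 note: % of control where 0% means no effect; inhibitors lower the polarisation; unlabelled MLL peptide was the positive control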
TRPV1 PAM: human TRPV1 potentiation. TRPV1-expressing cells, Fluo-8 calcium influx, capsaicin EC20 potentiation; host cell line not named in the record; control for the full effect not named in the record. potentiation, % at 8.33 µM. 320,000 tested, 0.02% active. Q8NER1. AID 540277; active means potentiation above 80%; inconclusive means 30% to 80%; inactive means below 30%; note: 0% is about no effect
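Cells expressing TRPV1 were dye-loaded with Fluo-8 and read kinetically: 10 s baseline, 3 min after compound (agonist portion), then 2 min after EC20 capsaicin (allosteric enhancer portion). Calcium-bound dye fluorescence at 480/520 nm.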
Sfp inh: blocks B. subtilis Sfp PPTase activity. Q9F4F7. Biochemical Sfp PPTase activity, qHTS. Potency, µM, for inactives: max response, negative = inhibition, hits mostly inhibitors. 310,000 tested, 3.5% active. AID 1490; active = well fitted inhibition curve with a large enough effect; inconclusive = small, poorly fitted or top-dose-only effect, or another doubt; inactive = no such curve, though single readings can be large or run the other way;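 note: the enzyme is Sfp with the accession as filed and its product quenches rhodamine fluorescence; potency is the fitted concentration of half-maximal effect; 0% = enzyme reaction without inhibitor and -100% = no enzyme wells; top concentration of the series not given in the record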
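With Hepes-Na pH 7.6 buffer containing 10 mM MgCl2, Sfp (15 nM) modified BHQ-2-YbbR (12.5 uM) using rhodamine-CoA (5 uM). Two reads 30 minutes apart at 525/598 nm yielded each well's rate.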
* hit, by the source's call; ? = inconclusive; . = no result given; & = joins results of further samples; [ ] = remark or other dose.

Structure,gsp agonist,TRPV1 PAM,gsp antagonist,Menin-MLL FL inh,ClpP mod,D2 potentiator,Sfp inh
CCOC(=O)C(=NC(C)CC)NNc1ccc(Br)cc1 (stereo unspecified),10%,-12,-10%,4.6,.,17,-3%
Cc1cccc(CSc2nnc([C@@H]3CCCN3C(=O)OC(C)(C)C)o2)c1,-2%[15.4 µM],-10,-27%,3.5,-1.7%,-31,10%
C=CCn1c(=O)c2c(C)c(C)sc2n2c(Nc3ccccc3)nnc12,-3%,1,-18%,-2.2,3.3%,-10,14%
COc1ccc(S(=O)(=O)N2CCCCC2)cc1NC(=O)c1[nH]c(C)c(C(C)=O)c1C,.,.,?,.,-2.9%,-8,.
CCNC(=O)/C=C/c1ccccc1[N+](=O)[O-],-27%,10,-1%,-3.8,-0.7%,-14,7%
O=C(O)CCN(Cc1ccccc1)S(=O)(=O)c1ccccc1Cl,-1%[15.4 µM],4,-16%,0.6,.,4,1%
Cc1ccc2nc(SCC3CCCCO3)[nH]c2c1 (stereo unspecified),-1%,-29,0%,-7.0,.,-6,5%
Oc1c(Br)cc(Br)cc1C=NCc1ccccc1,12%,1,?,?,.,-6,-5%
CCOC(=O)C1CCN(CC(=O)c2c(C)[nH]c3ccccc23)CC1,3%,8,-4%,2.4,-0.5%,-16,13%
COc1cc2nc(C3CCC3)n(NC(=O)C3CCC(OC)CC3)c(=O)c2cc1OC (stereo unspecified),-27%,2,-2%,-0.8,-0.5%,-9,5%
CN1CCC(N(C)C(=O)c2ccccc2Nc2ccc(SC(F)F)cc2)CC1,7%,1,0%,-1.1,-0.5%,-18,10%
COc1ccc(-c2ccc3[nH]c4c(c3c2)CCN2C(=O)[C@@H]([C@H](C)O)[C@@H](N(C)C(=O)Nc3ccccc3)C[C@@H]42)cc1,-3%,.,.,.,?,-2,.
CCCOc1ccc(N2C(=O)CC(N3CCC(O)(c4cccc(C(F)(F)F)c4)CC3)C2=O)cc1 (stereo unspecified),18%,-13,0%,0.8,1.3%,-3,6%
O=C(COC(=O)C12CC3CC(CC(C3)C1)C2)NCc1ccco1,-26%,-26&-17,6%,3.7,0.7%,7,-11%
CC(=O)c1ccccc1C(=O)N1CCCC(CNC(=O)c2ccc(F)cc2)C1 (stereo unspecified),-121%[inhibitor],.,.,.,-1.3%,-9,.
Cc1cc(S(=O)(=O)N2CCOCC2)ccc1OCC(=O)NCC1CCCO1 (stereo unspecified),-7%[15.4 µM],5,6%,-0.9,-0.8%,-21,3%
Cc1cc(OCCn2cncn2)ccc1[N+](=O)[O-],18%,5,2%,2.2,-3.2%,-14,-2%
CN1CCN(C2=Nc3cc(F)ccc3Cc3ccccc32)CC1,.,2,.,-0.7&-2.4,.,.,-6%&14%&14%
CC(C)CNC(=S)N1CCC(C(=O)c2ccc(Cl)cc2)CC1,-103%[inhibitor],.,.,.,2.0%,-19,.
CCn1c(C)c(C(C)=O)c(N2CCN(c3ccc(F)cc3)CC2)nc1=S,3%,-1,-7%,0.7,0.2%,-2,-22%
Cc1cccc(NC(=O)CN2CCN(C(=O)CNC(=O)c3ccc(-c4ccccc4)cc3)CC2)c1C,-79%[inhibitor],.,.,.,-18%,-19,.
COc1ccc(-c2cc(-c3cccs3)c(C#N)c(SCC(=O)NCc3ccccc3OC)n2)cc1,-4%,3,0%,7.7,40µM*,-13,-17%
CC1CCN(C(=O)c2ccccc2NC(=O)c2cccs2)CC1,1%,8,8%,-4.5,2.0%,-9,10%
CCc1n(CC(O)COCc2ccccc2)c2ccccc2[n+]1C (stereo unspecified),3%,-2,14%,-5.4,1.4%,-7,-4%
Nn1c(SCC(=O)Nc2ccc(N3CCOCC3)cc2)nnc1C1CC1,-14%,.,-1%,.,-1.4%,5,.
O=C1CCC(C(=O)N2CCCC(N3CCN(c4cccc(C(F)(F)F)c4)CC3)C2)=NN1 (stereo unspecified),4.5µM*,2,5%,.,-0.6%,-7,7%
Cc1nn(S(=O)(=O)N(C)C)c(C)c1CN1C(=O)c2ccccc2C1=O,?,8,1%,-1.3,-1.3%,-2,16%
O=C(Cc1cccs1)Nc1ccc(S(=O)(=O)N2CCCC2)cc1,-50%[inhibitor],-15,-7%,17,.,-4,?
O=C(NCc1ccco1)C1CCN(C(=O)c2cc3sccc3n2Cc2ccc(F)cc2)CC1,-41%[inhibitor],3,?,5.3,-0.2%,-15,?
CCOC(=O)c1ccc(NC(=O)CSc2nnc(-c3ccncc3)n2C)cc1,18%,0,-1%,0.1,-2.0%,14,16%
NC(=O)N=Nc1c(O)n(Cc2ccccc2)c2ccc(Br)cc12,-22%,28,-21%,3.2,.,-1,-9%
CCOc1ccc(S(=O)(=O)N2CCC(C(=O)OCc3ccc(OC)cc3)CC2)cc1,2%,2,-4%,.,-2.9%,-11,.
CCC(C)n1c(SCC(=O)NC(=O)Nc2ccc3c(c2)OCCO3)nc2ccccc2c1=O (stereo unspecified),-21%,-2,-11%,4.3,-2.1%,10,13%
Cc1ccsc1/C=N/NC(=O)C1C(=O)NCC1c1ccccc1 (stereo unspecified),?,.,4%,0.5,.,-4,11%
Cc1cc2nc(C)c(Cc3ccccc3)c(=O)n2[nH]1,-20%,3,4%,-0.7,14µM*,1,21%
Cc1ccc(Cn2c(=N)c(C(=O)NC3CCCC3)cc3c(=O)n4ccccc4nc32)cc1,5%,7,-6%,16,4.5%,-31,-6%
CC1(C(=O)CSc2n[nH]c(-c3ccccc3Cl)n2)CCC(=O)O1 (stereo unspecified),.,-14,.,4.9,.,.,50µM*
COc1ccc(C(=O)NC(=S)Nc2cccc(NC(=O)c3ccco3)c2)cc1[N+](=O)[O-],3%,-2,-2%,2.1,0.8%,-23,15%
O=C(NCc1cccnc1)C12CC3CC(CC(Cl)(C3)C1)C2,34%,-7,12%,.,-2.3%,-2,10%
COC(=O)c1ccccc1NC(=O)CC(NCc1ccccc1)C(=O)O (stereo unspecified),-65%[inhibitor],.,-5%,.,-4.5%,-7,.
CCN1CCN(CNC(=O)c2cnccn2)CC1,15%,-9,-15%,1.6,-3.3%,7,13%
Cn1ncc2c(=S)nc(Cl)[nH]c21,9%[15.4 µM],.,-4%,.,-1.6%,-28,.
Cc1ccsc1/C=C1/C(=O)NN(c2ccccc2)C1=O,-3%[15.4 µM],?,?,1.2,.,-13,11%
O=C(COC(=O)c1cc(F)c(F)cc1Cl)NC1CC1,?,-7,-3%,-3.5,1.3%,0,3%
COc1ccc(C2(O)CN(c3ccccc3)C3=[N+]2CCS3)cc1OC (stereo unspecified),2%[15.4 µM],5,2%,5.3,.,-13,-9%
CC(=O)N1CCc2c(sc3c2c(=O)n(Cc2ccccc2)c(=O)n3CC(=O)NCC2CCCO2)C1 (stereo unspecified),?,6,3%,7.3,-1.2%,-4,7%
CCCCc1nc(SCc2ccc([N+](=O)[O-])cc2)n[nH]1,11%,-4,7%,-2.7,0.7%,-10,16%
Cc1cccc(NC(=O)c2nc[nH]c2C(=O)N(C)Cc2ccccc2)c1,-3%,4,-6%,.,-0.3%,-19,.
CCc1nc2oc3ccccc3c(=O)c2c(=O)n1CCOC,6%,.,7%,2.1,-4.3%,-2,20%
Cc1noc(C)c1COC(=O)Cc1ccc(Cl)cc1,1%,22,4%,-2.7,-4.1%,-5,0%
CCOC(=O)C(Cc1ccc(O)cc1)Nc1nc2ccccc2o1 (stereo unspecified),-28%,.,-6%,.,-3.4%,-7,.
Cc1c(C(=O)N2CCN(c3ccccc3F)CC2)oc2c1C(=O)CC(C)(C)C2,2%,-6,-7%,.,-0.8%,-1,-4%
COc1ccc(NC(=S)N2CCN(S(=O)(=O)c3ccc(C)cc3)CC2)cc1,14%[15.4 µM],4,-5%,-4.8,-1.7%,3,3%
COc1cc(OC)c(OC)cc1CNC(=O)c1ccc(S(=O)(=O)N2CC(C)OC(C)C2)cc1 (stereo unspecified),-43%[inhibitor],-26,-5%,.,0.1%,-1,.
CCCCSc1nc2ccc(Nc3nc(N4CCOCC4)nc(N4CCOCC4)n3)cc2s1,-17%,8,-1%,0.2,?,5,?
O=c1[nH]ncc(NCCc2ccccc2)c1Cl,11%[15.4 µM],7,9%,-2.2,.,-2,7%

The list goes on.
Structure,gsp agonist,TRPV1 PAM,gsp antagonist,Menin-MLL FL inh,ClpP mod,D2 potentiator,Sfp inh
O=C(Oc1nsnc1N1CCOCC1)N(c1ccccc1)c1ccccc1,3%,-23,-24%,-2.0,2.0%,-4,11%
COc1ccc2[nH]c(-c3ccc(C)cc3)cc(=O)c2c1,22%,-13,11%,2.8,4.8%,-28,12%
CC(Sc1nnc(N)s1)C(=O)Nc1ccc2c(c1)OCCO2 (stereo unspecified),4%,-1,10%,.,-1.7%,-7,11%
COc1cccc(Oc2ccc(S(=O)(=O)N3CCOCC3)cc2[N+](=O)[O-])c1,17%,.,6%,.,.,3,.
O=C(CSc1ccc(C(F)(F)F)cn1)Nc1ccccc1,-2%[15.4 µM],.,1%,-0.1,-1.5%,-8,17%
CCN(Cc1ccc2c(c1)OCO2)C(=O)CSc1ncnc2sccc12,0%,-18,11%,.,-1.6%,-2,.
CCN(Cc1ccccc1)C(=O)CCc1nnc(CCCc2ccccc2)o1,-54%[inhibitor],-2,1%,-2.4,.,5,1%
C[C@]1(C(=O)NCCc2c[nH]c3ccccc23)C=C[C@@H](Cc2ccccc2)N1C(=O)c1ccccc1,-17%,23,-25%,0.2&-2.9,1.3%,-8,-8%&14%
CC(C)CC(=O)c1c[nH]c(C(=O)NCCc2ccccn2)c1,-7%,-5,10%,-0.3,-4.3%,-2,-1%
CN=c1scc(-c2ccccc2F)n1/N=C(\C)c1cccnc1,-1%[15.4 µM],-8,5%,1.5,.,-7,7%
O=C(OCC(=O)N1CCN(C(=O)c2ccco2)CC1)c1c(Cl)cccc1Cl,23%,.,-1%,.,32µM*,-3,.
O=C(Nc1ccccc1N1CCOCC1)C1=COCCO1,-32%[inhibitor],27,-6%,.,1.8%,-20,.
COc1ccc(N(C)C(=O)c2ccc3c(Cl)c4c(nc3c2)CCCC4)c(OC)c1,-20%,12,?,3.5,2.4%,-8,?
